RmlCD inh 1536 – inhibitors of Mycobacterium tuberculosis RmlC and RmlD coupled enzymes; inhibition, % at 3.6 µM; RmlC+RmlD coupled enzyme assay, percent inhibition; primary screen in compound mixtures; P9WH09+P9WH11; AID 1533; hit rate 0.03% among 160,000; in the data active = inhibition mostly above about 34%, no sharp cut-off; only retested compounds are shown here; also: some results filed as inactive read as strong as hits
Target sequence (P9WH09 whole entry, looked up): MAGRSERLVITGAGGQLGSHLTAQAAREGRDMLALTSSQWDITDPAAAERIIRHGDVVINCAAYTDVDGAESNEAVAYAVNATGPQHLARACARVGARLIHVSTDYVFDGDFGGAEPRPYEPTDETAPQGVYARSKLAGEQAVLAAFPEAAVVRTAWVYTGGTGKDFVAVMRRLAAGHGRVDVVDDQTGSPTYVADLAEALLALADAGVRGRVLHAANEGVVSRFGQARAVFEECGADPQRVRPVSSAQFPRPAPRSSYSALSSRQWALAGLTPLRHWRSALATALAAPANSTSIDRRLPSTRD
Target sequence (P9WH11 whole entry, looked up): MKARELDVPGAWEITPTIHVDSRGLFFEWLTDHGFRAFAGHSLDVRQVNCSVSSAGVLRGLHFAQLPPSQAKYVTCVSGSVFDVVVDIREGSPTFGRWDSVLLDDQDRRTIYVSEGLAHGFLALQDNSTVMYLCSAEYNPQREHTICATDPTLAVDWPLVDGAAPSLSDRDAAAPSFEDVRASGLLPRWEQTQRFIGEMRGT
RmlCD inh 1536 retest – further read-out of RmlCD inh 1536, marked with its call; inhibition, %; measured here: mean retest inhibition;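 single compounds in two wells; values far above 100% likely come from compound fluorescence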
* marks the source's active call; other numbers are inactive results. These rows are one share of the data; rates above refer to the full screens.

Molecule	RmlCD inh 1536	RmlCD inh 1536 retest
CCCCC(=O)NCCc1cc2c(OC)ccc(OC)c2[nH]c1=O	60	4
CCOC1OC(=O)C(Cl)=C1Nc1ccc(C)cc1 (configuration not stated)	65	-5
CC(O)C(=O)N/N=C/c1ccccc1C(=O)O (configuration not stated)	49	0
Cc1ccc(NC(=O)Nc2ccc3c(c2)C(=O)OC3)cc1Cl	41	-1
COc1cccc(C=Nc2ccccc2C(=O)Nc2nccs2)c1OC	86	-50
CCN(CC(=O)Nc1ccccc1OC)C(=O)C1CC2C=CC1C2 (configuration not stated)	104	-5
O=C(N/N=C/c1ccco1)c1cc(-c2cccs2)[nH]n1	62	-12
CCN(CC)c1ccc(/C=N/Nc2nc(C)cc(C)n2)c(O)c1	33	-29
COc1cccc(/C=N/NC(=O)CCn2c3ccccc3c3ccccc32)c1	41	-4
COc1ccc(C(=O)CSc2nc3ncccc3[nH]2)cc1OC	32	8
Cc1cc(C)cc(NC(=S)/N=C(\N)Nc2nc(C)c3ccccc3n2)c1	61	-4
COc1ccc(CCNC(=O)C(=O)NN=C2CCCCCCC2)cc1OC	37	-6
CS(=O)(=O)Nc1ccc(C2=NN(C(=O)c3ccco3)C(c3ccccc3)C2)cc1 (configuration not stated)	75	1
C=CCN(CC=C)C(=O)Nc1ccc2nc(C)sc2c1	47	-8
Cc1c(N2C(=O)c3cccc4cccc(c34)C2=O)cnn1C	63	-1
Cc1ccc2c(c1)C1CN(C)CCC1N2C(=O)c1ccccc1NS(=O)(=O)c1ccc(F)cc1 (configuration not stated)	55	-4
Cc1cccc(NS(=O)(=O)c2cc(NC(=O)CC(=O)c3ccc([N+](=O)[O-])cc3)ccc2C)c1	33	-7
Cn1nnnc1SCC(=O)C(C)(C)C	30	-7
CCCCN(CCCC)S(=O)(=O)c1ccc(NC(=O)c2ccc([N+](=O)[O-])cc2Cl)cc1	94	-10
CCn1c(=O)c2c(cnn2C)c2ccccc21	33	-3
N=c1n(Cc2ccccc2)c2ccccc2n1Cc1ccccc1	57	8
CC1(C)CC(NC(=O)c2cccc3ccccc23)CC(C)(C)N1	60	15
CC(C)CNC(=O)COC(=O)c1ccccc1SCC(=O)NCC(C)C	33	15
O=C(CSCc1ccco1)NC1CCCC1	40	-3
CCN(CCn1cccn1)C(=O)CC1C(=O)NCCN1Cc1ccc(F)cc1 (configuration not stated)	44	-6
COc1cc(C)c(/C=C(\C#N)C(=O)Nc2ccc(C)cc2)cc1C(C)C	46	15
CC(=O)N/C(=C\c1ccc(F)cc1)C(=O)NC(Cc1c[nH]c2ccccc12)C(=O)O (configuration not stated)	31	-5
O=C1CCC2(CC1)NC(=O)N(c1ccccc1)N2	37	0
Fc1cccc(Cl)c1/C=N/n1c(-c2cccnc2)n[nH]c1=S	44	3
CNC(=O)Nc1cccc(NC(=O)NC)n1	85	-6

Four entries picked at random from those above, as already listed:
Molecule	RmlCD inh 1536	RmlCD inh 1536 retest
CCN(CCn1cccn1)C(=O)CC1C(=O)NCCN1Cc1ccc(F)cc1 (configuration not stated)	44	-6
CCOC1OC(=O)C(Cl)=C1Nc1ccc(C)cc1 (configuration not stated)	65	-5
CCCCN(CCCC)S(=O)(=O)c1ccc(NC(=O)c2ccc([N+](=O)[O-])cc2Cl)cc1	94	-10
CCn1c(=O)c2c(cnn2C)c2ccccc21	33	-3

Next compounds follow:
Molecule	RmlCD inh 1536	RmlCD inh 1536 retest
COc1ccccc1CC1/C(=N/O)C2CCN1CC2 (configuration not stated)	38	-8
Nc1cccc2c1C(=O)N(C(=O)/C=C/c1cccc(F)c1)C2=O	46	-37
CCC1=Nc2cc(C(=O)NCC3CCCO3)ccc2Sc2ccc(Br)cc21 (configuration not stated)	31	-9
COc1nc(-c2ccccc2)ncc1S(=O)(=O)c1ccccc1	43	-4
CC(C)c1nc(-c2ccc([N+](=O)[O-])cc2)cs1	31	-4
C[C@H](NC(=O)OC(C)(C)C)C(=O)N/N=C/c1ccc2nccnc2c1	36	16
CCCC(=O)Nc1ccc(-c2csc(N/N=C\c3ccncc3)n2)cc1	81	6
CCn1cc(C(=O)Nc2sc(C)c(C)c2C(=O)OC)cn1	50	14
CSCC[C@H](NC(=O)C1CCN(S(=O)(=O)c2ccc(C)cc2)CC1)C(=O)NCC1CCCO1 (some centres not stated)	104	-13
CCOc1ccc(-n2c(N)c(C(=O)N3CCN(C)CC3)sc2=S)cc1	35	-2
Cc1ccc(S(=O)(=O)N(C)CCCC(=O)Nc2ccc(F)cc2)cc1	32	-9
Cc1cccc(C(=O)Nc2nnc(COc3ccccc3)s2)c1	106	-8
CC(C)CNC(=O)NC(=O)COc1ccc(C=O)cc1	42	6
N#CC12CNCC1CN=N2 (configuration not stated)	31	-9
Cc1[nH]c2ccccc2c1/C=N/O	48	-2
O=C(COc1ccc([N+](=O)[O-])cc1)N(Cc1ccccc1)Cc1ccccc1	38	0
COc1ccc(CCC(C)NCC2CCCCC2)cc1 (configuration not stated)	65	-14
O=C(O)/C=C/C(=O)NCCc1ccc(Cl)cc1	44	7
Cc1ccc(C2Nc3ccccc3C(=O)N2CCN2CCNC2=O)cc1 (configuration not stated)	41	28
O=C(O)c1ccc(N2C(=O)/C(=C/C=C/c3ccccc3)SC2=S)cc1	36	-22
COCCCNC(=O)CSc1c2c(nc3ccc(Cl)cc13)CCCC2	74	-6
COc1cccc(C(c2c(N)[nH]c(=S)[nH]c2=O)c2c(N)[nH]c(=S)[nH]c2=O)c1	78	-31
CCc1ccccc1NC1=CC(=O)CC(C)(C)C1	44	-10
CCC(C)NC(=O)/C=C/c1cccs1 (configuration not stated)	38	6
CC(=O)c1cccc(NC(=O)COC(=O)c2ccc(S(C)(=O)=O)c([N+](=O)[O-])c2)c1	32	-16
COc1cccc(NC(=S)N/N=C2\CC3CCC2(C)C3(C)C)c1 (configuration not stated)	48	4
Cc1ccc(NC(=O)C(Cc2ccccc2)n2cccc2)cc1 (configuration not stated)	37	-9
Cc1nc(NCc2cccnc2)c2c3c(sc2n1)CCCC3	89	-14
Cc1cccc(NC(=O)CSc2nc3[nH]ncc3c(=O)[nH]2)c1	36	-4
CCOC(=O)/C=C1\SCC(=O)N1CC(=O)NC(C)c1ccc(F)cc1 (configuration not stated)	80	1

Overlap with the part before: five entries, followed by the next part.
Molecule	RmlCD inh 1536	RmlCD inh 1536 retest
COc1cccc(NC(=S)N/N=C2\CC3CCC2(C)C3(C)C)c1 (configuration not stated)	48	4
Cc1ccc(NC(=O)C(Cc2ccccc2)n2cccc2)cc1 (configuration not stated)	37	-9
Cc1nc(NCc2cccnc2)c2c3c(sc2n1)CCCC3	89	-14
Cc1cccc(NC(=O)CSc2nc3[nH]ncc3c(=O)[nH]2)c1	36	-4
CCOC(=O)/C=C1\SCC(=O)N1CC(=O)NC(C)c1ccc(F)cc1 (configuration not stated)	80	1
CNC(=S)Nc1cc(OC)c(NC(=O)c2ccco2)cc1OC	63	8
CCc1nnc(NC(=O)CN2C(=O)/C(=C/c3cc(OC)c(OC)c(OC)c3)SC2=S)s1	64	-8
CCNC(=S)N1CC(C)OC(C)C1 (configuration not stated)	34	7
O=C1C2C3CCC(C3)C2C(=O)N1c1ccc(OS(=O)(=O)c2ccccc2)cc1 (configuration not stated)	30	-2
Cc1cc(C)c(S(=O)(=O)Nc2ccccc2-c2ccccc2)c(C)c1	68	7
COc1ccc(/C=N/NC2=NCCCCC2)cc1	103	-11
CC1CN(C(=O)C2(C)CC2(Br)Br)CC(C)O1 (configuration not stated)	55	2
Cc1ccc2nc(C)cc(Nc3ccc4c(c3)OCCO4)c2c1	103	3
O=C(CCC(=O)N1CCOCC1)Nc1nnc(C2CCCCC2)s1	96	-15
CN(C)S(=O)(=O)c1cccc(NC(=O)CSc2ncnc3ccccc23)c1	55	-7
O=C(O)c1ccc(CNC(=O)c2ccccc2NC(=O)c2cccc([N+](=O)[O-])c2)cc1	52	12
Cn1nc(C(F)(F)F)c(CO)c1Sc1ccc(F)cc1	37	4
COc1ccc(CC(=O)NCc2n[nH]c(=S)n2-c2ccc(F)cc2)cc1	48	-12
COc1ccccc1CC(=O)Nc1c[nH]c(=O)[nH]c1=O	52	-17
CCN(CC)C(=O)CN(C#N)c1nc(C)cc(C)n1	41	-8
CC(C)(C)c1ccc(Oc2ccc(NC(=O)CCCC(=O)O)cn2)cc1	55	5
O=C(Nc1ccccc1)c1ccc(CN2CCc3ccccc3C2)cc1	34	-7
COc1cc(/C=C2\C(=N)N3N=CSC3=NC2=O)cc(Br)c1OC(=O)c1ccco1	60	-5
Cc1nc(CSc2n[nH]c(=O)n2-c2ccccc2)cs1	36	-8
COc1ccc(-c2cc(C(F)F)n3ncc(C(=O)N4CCc5ccccc54)c3n2)cc1	39	3
C=C(C)c1cccc(C(C)(C)NC(=O)Nc2cc(C)ccn2)c1	46	5
O=C(c1ccc(Sc2ccc(F)cc2)c([N+](=O)[O-])c1)N1CCOCC1	53	-12
O=C(CCNS(=O)(=O)c1ccc(Cl)cc1)OCC(=O)c1ccc[nH]1	35	-1
NC(=O)C(C(=O)/C=C/c1ccc(Cl)cc1)=C1SCCS1	108	-5
COc1ccc(-c2cc(=NCCC(=O)O)c3cc(C)ccc3o2)cc1	32*	105*
O=S(=O)(c1ccc(Cl)cc1)c1cnc2ccccc2n1	50	3
COc1ccc(C(=O)OCC(N)=O)cc1[N+](=O)[O-]	31	-4
C=C(C)CN(CC)C(=O)CC1C(=O)NCCN1Cc1c(F)cccc1Cl (configuration not stated)	34	6
Cn1ncc2cc(NC(=S)NC(=O)c3ccccc3)ccc21	39	-14
COc1cc(CCC(=O)OCC(=O)NCC2CCCCC2)cc(OC)c1OC	38	4

4 entries out of the list, ordered by molecular weight, smallest number first.
Molecule	RmlCD inh 1536	RmlCD inh 1536 retest
CCNC(=S)N1CC(C)OC(C)C1 (configuration not stated)	34	7
C=C(C)c1cccc(C(C)(C)NC(=O)Nc2cc(C)ccn2)c1	46	5
O=C(Nc1ccccc1)c1ccc(CN2CCc3ccccc3C2)cc1	34	-7
CCc1nnc(NC(=O)CN2C(=O)/C(=C/c3cc(OC)c(OC)c(OC)c3)SC2=S)s1	64	-8

Next records follow:
The line under a structure holds: RmlCD inh 1536	RmlCD inh 1536 retest
> COC(=O)c1ccc(NC(=S)Nc2ccccc2)cc1
→ 41	-13
> COc1cc(/C=C/C(=O)O)cc(S(=O)(=O)Nc2cc(Cl)c(Cl)cc2Cl)c1OC
→ 58	-16
> NS(=O)(=O)c1ccc(NC(=O)COC(=O)c2cnccn2)cc1
→ 42	7
> OCCN=C1CCCc2c1[nH]c1ccc(Cl)cc21
→ 46	-5
> Cc1ccc([N+](=O)[O-])cc1N(CC(=O)N1CCCCC1)S(C)(=O)=O
→ 109	3
> Cc1nc2ccccc2[nH]c1=O
→ 72	-7
> Cc1ccc2oc(=O)c(/C=C(\O)c3sc(C)nc3C)nc2c1
→ 40	0
> Cn1nnnc1Sc1ccc([N+](=O)[O-])cc1Cl
→ 66	1
> CC1CCCCN1C(=O)CCn1c(=S)oc2ccccc21 (configuration not stated)
→ 82	6
> Cn1c(NC(=O)/C=C/c2ccc(Cl)c(Cl)c2)cc(=O)n(C)c1=O
→ 31	-6
> Cc1ccc(C(=O)C[n+]2cc(Br)cc(Br)c2)cc1
→ 56	4
> CS(=O)(=O)c1[nH]nc(-c2ccccc2)c1C#N
→ 43	-6
> COCCNC(=O)/C(C#N)=C/c1ccc2c(c1)OCO2
→ 44	10
> CCOC(=O)C(=CNc1cscc1S(=O)(=O)C(C)C)C(=O)OCC
→ 56	-13

A few values from the results shown:
RmlCD inh 1536 result of CCOC(=O)C(=CNc1cscc1S(=O)(=O)C(C)C)C(=O)OCC stands at 56
RmlCD inh 1536 retest result of Cc1ccc([N+](=O)[O-])cc1N(CC(=O)N1CCCCC1)S(C)(=O)=O stands at 3
RmlCD inh 1536 result of Cc1ccc(C(=O)C[n+]2cc(Br)cc(Br)c2)cc1 stands at 56
RmlCD inh 1536 retest result of OCCN=C1CCCc2c1[nH]c1ccc(Cl)cc21 stands at -5

Screens as filed in PubChem BioAssay.
